SARS PLpro yeast = qHTS of Yeast-based Assay for SARS-CoV PLP; S. cerevisiae expressing SARS-CoV PLpro, growth rescue; control for the full effect not named in the record; Potency, µM (doses to about 32.9 µM), inactives show at the highest dose activity, positive = growth rescue; actives 0.19% (n = 330,000); also: 0% is about no effect; nearly all actives have a fitted effect of over 55% in size; growth read by luminescence after 48 h
NS1 inh = qHTS Assay for Inhibitors of Influenza NS1 Protein Function; S. cerevisiae slowed by influenza A NS1, growth recovery by OD600; Potency, µM (series often up to 46.1 µM), for inactives: at the top dose activity, positive = more growth; actives 0.4% (n = 270,000); AID 2326, 2010; also: actives are rising curves; nearly all actives have a fitted effect of over 50% in size
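Compounds were scored for reversing the slow growth caused by influenza A NS1 in S. cerevisiae, measured by optical density at 600 nm. Assay medium contained 2% galactose at pH 6.0; NS1-free yeast of the same strain were the positive control.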
Cruzain inh Det = qHTS Assay for Promiscuous and Specific Inhibitors of Cruzain (with detergent). Cruzipain (Trypanosoma cruzi), P25779. Potency, µM, without a hit: max response, negative = inhibition, usual class: inhibitors. AID 1478, 2009. actives 0.43% (n = 200,000). purified cruzain, Z-FR-AMC fluorescence, 0.01% Triton; active = well fitted curve in the direction sought with a large enough effect; inconclusive = small, poorly fitted or top-dose-only effect, or another doubt; inactive = no such curve, though single readings can be large; an effect the other way counts as inactive or inconclusive;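 also: plate controls were neutral wells for no effect and buffer without enzyme for full effect; nearly all actives have a fitted effect of over 40% in size; top concentration of the series not given in the record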
Target sequence (P25779 123-467 limits assumed): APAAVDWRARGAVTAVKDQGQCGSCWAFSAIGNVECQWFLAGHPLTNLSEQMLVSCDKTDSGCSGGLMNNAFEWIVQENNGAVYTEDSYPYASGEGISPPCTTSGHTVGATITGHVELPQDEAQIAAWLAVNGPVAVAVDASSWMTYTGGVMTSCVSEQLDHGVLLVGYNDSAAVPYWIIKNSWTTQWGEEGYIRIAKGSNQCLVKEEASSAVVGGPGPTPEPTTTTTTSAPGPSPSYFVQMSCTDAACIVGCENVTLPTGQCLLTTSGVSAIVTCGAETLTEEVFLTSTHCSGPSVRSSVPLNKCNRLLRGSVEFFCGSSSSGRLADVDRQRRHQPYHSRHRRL
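Read-out: AMC fluorescence (360 nm excitation, 450 nm emission), four reads over 2 min, first-to-third difference used. Conditions: cruzain 1.5 nM, Z-FR-AMC 2 uM, pH 5.5 acetate, 5 mM DTT, 0.01% Triton X-100.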
StopGo reporter = High Throughput Screening for Foot and Mouth Disease Virus Antivirals | human cells with a luciferase reporter of 2A StopGo recoding; control for the full effect not named in the record | actives 1.2% (n = 410,000) | Potency, µM (titrated, usually from 57.9 µM), without a hit: top-dose signal change, negative = less light; active = well fitted falling curve with a large enough effect; inconclusive = small, poorly fitted or top-dose-only effect; inactive = no such curve, though single readings can be large or run the other way; tested in HEK293T cells; also: % is scaled to controls: 0 for no effect and ±100 for the full control effect; nearly all actives have a fitted effect of over 45% in size; luciferase light after 4 h
Lassa entry inh = qHTS for Inhibitors of binding or entry into cells for Lassa Virus | actives 1.2% (n = 300,000) | Lassa virus pseudotype entry inhibition, cell reporter; control for the full effect not named in the record | Potency, µM (top dose mostly 37.9 µM), inactives show at the top dose activity change, negative = inhibition, hits mostly inhibitors; active means well fitted inhibition curve with a large enough effect; inconclusive means small, poorly fitted or top-dose-only effect, or effect the other way; inactive means flat fitted curve, though single readings scatter; tested in HEK293 cells; also: % is scaled to controls: 0 for no effect and ±100 for the full control effect; nearly all actives have a fitted effect of over 50% in size; luciferase read-out
Marburg entry inh = qHTS for inhibitors of binding or entry into cells for Marburg Virus; Potency, µM (doses to about 37.8 µM), inactives show top-dose activity change, negative = inhibition, actives largely listed as inhibitors; actives 1.8% (n = 300,000); Marburg virus pseudotyped entry inhibition, cell reporter; control for the full effect not named in the record; about a third of the inactives were read at about 46 µM; active = well fitted inhibition curve with a large enough effect; inconclusive = small, poorly fitted or top-dose-only effect, or effect the other way; inactive = flat fitted curve, though single readings scatter; tested in HEK293 cells; about a fifth of its hits are not listed in these tables; also: % is scaled to controls: 0 for no effect and ±100 for the full control effect; luciferase read-out
Cruzain inh noDet = qHTS Assay for Promiscuous and Specific Inhibitors of Cruzain (without detergent); Potency, µM, for the others: max response, negative = inhibition, most hits filed as inhibitors; Cruzipain (Trypanosoma cruzi), P25779; purified cruzain, Z-FR-AMC fluorescence, no detergent; AID 1476, 2009; actives 2.3% (n = 200,000); active = well fitted curve in the direction sought with a large enough effect; inconclusive = small, poorly fitted or top-dose-only effect, or another doubt; inactive = no such curve, though single readings can be large; an effect the other way counts as inactive or inconclusive;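 also: plate controls were enzyme without inhibitor for no effect and buffer without enzyme for full effect; nearly all actives have a fitted effect of over 40% in size; top concentration of the series not given in the record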
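Detergent-free condition (0.00005% Triton X-100) in acetate buffer pH 5.5 with DTT. 1.5 nM enzyme and compound were pre-mixed 15 min, then 2 uM Z-FR-AMC substrate added; reaction progress from fluorescence change between first and third reads (60 s).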
RE007 growth inh = qHTS Assay for Inhibitors of the HIV-1 protein Vpr | actives 0.21% (n = 360,000) | Potency, µM (titrated, usually from 92.2 µM), for the others: at the highest dose activity change, negative = less growth | S. pombe RE007 Vpr strain, BacTiter-Glo ATP luminescence, 24 h; control for the full effect not named in the record | AID 651644, 2012; active = well fitted falling curve with a large enough effect; inconclusive = small, poorly fitted or top-dose-only effect; inactive = no such curve, though single readings can be large or run the other way;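 also: % is scaled to controls: 0 for no effect and ±100 for the full control effect; nearly all actives have a fitted effect of over 50% in size; the assay follows cell death caused by Vpr and the record does not say whether a fall means rescue or toxicity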
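Fission yeast RE007 carrying one integrated HIV-1 vpr copy, seeded at OD 0.01 in PMG+AL medium with 23 nL pinned compound. Grown 24 h at 30 degrees; viability read by BacTiter-Glo luminescence after 5 min.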
An asterisk follows results filed as active; & = joins results of further samples; [ ] = remark or other dose. Unless noted, calls follow the shape of the dose curve; as a rule, active means well fitted rising curve with a large enough effect; inconclusive means small, poorly fitted or top-dose-only effect; inactive means no such curve, though single readings can be large or run the other way. Potency is read from the fitted curve at half-maximal effect.

For CC(NC(=O)C1CCN(C(=O)[C@@H]2Cc3ccccc3CN2)CC1)c1ccccc1 (some centres undefined) the results were SARS PLpro yeast -1%, NS1 inh -12%, StopGo reporter 46%[activator] and RE007 growth inh -4%.
`Cc1ccc(Nc2ncccc2C(N)=O)cc1` gave SARS PLpro yeast -6%, NS1 inh inconclusive, Cruzain inh Det -4.7%, StopGo reporter 34%[activator], Lassa entry inh inconclusive, Marburg entry inh 11%, Cruzain inh noDet -1% and RE007 growth inh 1%.
`COc1ccc(-n2ncc(C(=O)NC3CC3)c2C2CCN(C(=O)OC(C)(C)C)CC2)cc1` gave SARS PLpro yeast 2%, NS1 inh 1%, StopGo reporter 1%, Lassa entry inh inconclusive, Marburg entry inh 11%[46.1 µM] and RE007 growth inh 13%.
Screening Cn1c(CCC(=O)Nc2ccc(F)cc2)nc2cc(S(=O)(=O)N3CCOCC3)ccc21 returned SARS PLpro yeast 2%, StopGo reporter -6%, Lassa entry inh 2%, Marburg entry inh -8%[46.1 µM] and RE007 growth inh 5%.
CC(OC(=O)CCC(=O)c1cccs1)C(=O)Nc1ccc(Cl)cn1 (centres undefined) was read as SARS PLpro yeast 18%, NS1 inh -15%, Cruzain inh Det -0.1%, StopGo reporter -9%, Lassa entry inh 13%, Marburg entry inh inconclusive, Cruzain inh noDet 1% and RE007 growth inh -22%.
`Fc1ccc(CN2CCc3nc(N4CCN(c5ccccc5F)CC4)ncc3C2)c(F)c1` gave Cruzain inh Det 0.8%, StopGo reporter inconclusive, Lassa entry inh 6%[46.1 µM] and Cruzain inh noDet -3%.
Cc1ccc2oc3c(c(=O)c2c1)C(c1cccc(O)c1)N(CCCN1CCOCC1)C3=O (centres undefined) was read as Cruzain inh Det -2.6%, StopGo reporter -15%, Lassa entry inh 16%[46.1 µM], Marburg entry inh 28%[46.1 µM] and Cruzain inh noDet 7%.
COCCN(C(=O)COC(=O)CCc1ccccc1OC)c1c(N)n(Cc2ccccc2)c(=O)[nH]c1=O was read as StopGo reporter -5%, Lassa entry inh 5%, Marburg entry inh 12% and RE007 growth inh 11%.
`Cc1nonc1OCC(C)(COc1nonc1C)NC(=O)c1ccccc1` gave SARS PLpro yeast 1%, NS1 inh 2%, Cruzain inh Det -1.0%, StopGo reporter -15%, Lassa entry inh inconclusive, Marburg entry inh 18%, Cruzain inh noDet -3% and RE007 growth inh -9%.
For O=C(COC(=O)CNC(=O)c1ccc(Cl)cc1)Nc1ncc(C(F)(F)F)cc1Cl the results were SARS PLpro yeast -34%, NS1 inh -4%, Cruzain inh Det 7.9µM*, StopGo reporter 0%, Lassa entry inh -3%, Marburg entry inh 7%, Cruzain inh noDet 4µM* and RE007 growth inh 1%.
`CC(=O)Nc1ccc(NC(=O)C2CCN(c3c(NC(C)=O)c(C)nn3-c3ccccc3)CC2)cc1` gave Cruzain inh Det 1.0%, StopGo reporter -11%, Lassa entry inh 2%[46.1 µM] and Cruzain inh noDet -1%.
Screening COc1ccccc1NC(=O)COc1cccc2c1CCNC2=O returned SARS PLpro yeast 4%, StopGo reporter -13%, Lassa entry inh -19%, Marburg entry inh -15%[46.1 µM] and RE007 growth inh -3%.
O=C(Nn1cnnc1)c1ccc(F)cc1 was read as SARS PLpro yeast 0%, NS1 inh -2%, StopGo reporter -33% and RE007 growth inh 0%.
For CCn1nc(C(C)C(=O)O)c2ccccc2c1=O (centres undefined) the results were SARS PLpro yeast 1%, NS1 inh 4%, StopGo reporter -9%, Lassa entry inh -1%[46.1 µM], Marburg entry inh 17%[46.1 µM] and RE007 growth inh -4%.
COc1cc(CNCc2ccccn2)ccc1OCC(N)=O was read as SARS PLpro yeast -8%, NS1 inh inconclusive, Cruzain inh Det 5.5%, Lassa entry inh inconclusive, Marburg entry inh -21%, Cruzain inh noDet -2% and RE007 growth inh -1%.
Screening Cc1cn(CCOc2ccc(Cl)cc2)c(=O)[nH]c1=O returned SARS PLpro yeast 2%, NS1 inh -3%, StopGo reporter -14%, Lassa entry inh -9%[46.1 µM], Marburg entry inh 12%[46.1 µM] and RE007 growth inh -8%.
CCOC(=O)c1sc(Nc2ccccc2Cl)nc1C was read as SARS PLpro yeast -4%, NS1 inh -39%, StopGo reporter 52%[activator] and RE007 growth inh -15%.
Screening Cc1cc(C)c(S(=O)(=O)N2CCOC2CNC(=O)C(=O)NCCCN2CCOCC2)c(C)c1 (centres undefined) returned SARS PLpro yeast -1%, NS1 inh -4%, StopGo reporter -25%, Lassa entry inh 17%, Marburg entry inh -15% and RE007 growth inh -17%.
Screening Cc1ccc2c(c1)N(C(=O)CCC(=O)NCc1ccccc1Cl)CC(C)O2 (centres undefined) returned Cruzain inh Det -1.8%, StopGo reporter -3%, Lassa entry inh 1%[46.1 µM], Marburg entry inh inconclusive and Cruzain inh noDet -3%.
For CCc1ccc(CN2C(=O)c3ccccc3C2C(=O)NCC2CCCO2)cc1 (centres undefined) the results were SARS PLpro yeast -1%, StopGo reporter 10%, Lassa entry inh -15%, Marburg entry inh -15%[46.1 µM] and RE007 growth inh 1%.

Random excerpt: two records from the list.
`CC(=O)Nc1ccc(NC(=O)C2CCN(c3c(NC(C)=O)c(C)nn3-c3ccccc3)CC2)cc1` gave Cruzain inh Det 1.0%, StopGo reporter -11%, Lassa entry inh 2%[46.1 µM] and Cruzain inh noDet -1%.
Screening Cc1cn(CCOc2ccc(Cl)cc2)c(=O)[nH]c1=O returned SARS PLpro yeast 2%, NS1 inh -3%, StopGo reporter -14%, Lassa entry inh -9%[46.1 µM], Marburg entry inh 12%[46.1 µM] and RE007 growth inh -8%.

Next results follow.
For O=S(=O)(Nc1ccc(-c2ccc3nncn3n2)cc1)c1cccc(F)c1 the results were SARS PLpro yeast 0%, StopGo reporter 8%, Lassa entry inh 4%, Marburg entry inh 2% and RE007 growth inh -11%.
O=C(c1ccc(F)cc1)N1CCN(C2CC3CCC2C3)CC1 (centres undefined) was read as SARS PLpro yeast 1%, NS1 inh 2%, Cruzain inh Det 3.4%, StopGo reporter 43%[activator], Lassa entry inh -3%, Marburg entry inh -1%, Cruzain inh noDet -5% and RE007 growth inh 0%.
CCc1ccc(S(=O)(=O)NCc2cn3c(C)csc3n2)s1 was read as SARS PLpro yeast inconclusive, NS1 inh 4%, Cruzain inh Det 2.4%, StopGo reporter -8%, Cruzain inh noDet -11% and RE007 growth inh -4%.
Screening Cc1cc(=O)[nH]c(SCC(=O)Nc2ccc(S(N)(=O)=O)cc2)n1 returned SARS PLpro yeast 0%, StopGo reporter 0%, Lassa entry inh 0%[46.1 µM], Marburg entry inh 0%[46.1 µM] and RE007 growth inh 7%.
Screening CCCCP(=O)(O)CCC(=O)O returned SARS PLpro yeast 2%, NS1 inh 1%, Cruzain inh Det -1.5%, StopGo reporter -13%, Lassa entry inh -1%, Marburg entry inh 9%, Cruzain inh noDet 15% and RE007 growth inh -1%.
For O=C(NCc1ccco1)C(c1ccco1)N(C(=O)Cn1nnc2ccccc21)c1ccc2c(c1)CCC2 (centres undefined) the results were NS1 inh -20%, StopGo reporter -2%, Lassa entry inh inconclusive, Marburg entry inh inconclusive and RE007 growth inh 28%.
For Cc1ccc(S(=O)(=O)N(C)c2ccc(C(=O)NCC3(N(C)C)CCCCC3)cc2)cc1 the results were SARS PLpro yeast -3%, NS1 inh -7%, StopGo reporter -23%, Lassa entry inh -6%, Marburg entry inh -22% and RE007 growth inh 4%.
Cc1ccc(C(=O)NNC(=O)/C=C\C(=O)O)cc1 was read as SARS PLpro yeast -4%, NS1 inh -3%, StopGo reporter -3%, Lassa entry inh inconclusive, Marburg entry inh 0%[46.1 µM] and RE007 growth inh -12%.
Screening CC(NC(=O)C1CCC1)c1ccccc1 (centres undefined) returned SARS PLpro yeast 2%, NS1 inh 13%, Cruzain inh Det 2.0%, StopGo reporter 16%, Lassa entry inh -4%, Marburg entry inh 1%, Cruzain inh noDet -5% and RE007 growth inh 7%.
For COCCN(C(=O)CN1CCc2ccccc2C1)c1c(N)n(Cc2ccccc2)c(=O)[nH]c1=O the results were SARS PLpro yeast -1%, NS1 inh 0%, Cruzain inh Det 3.2%, StopGo reporter inconclusive, Lassa entry inh -3%, Marburg entry inh 2%&2%, Cruzain inh noDet 2% and RE007 growth inh -1%.
Screening CCCCn1c(N)c(N(CCOC)C(=O)c2cccc(OCc3ccccc3)c2)c(=O)[nH]c1=O returned SARS PLpro yeast 5%, StopGo reporter -3%, Lassa entry inh 2%, Marburg entry inh 3% and RE007 growth inh -29%.
For CC1CCCC(NC(=O)CSc2nnnn2C)C1C (centres undefined) the results were SARS PLpro yeast 2%, NS1 inh -19%, Cruzain inh Det -1.2%, Lassa entry inh 5%, Marburg entry inh 23%, Cruzain inh noDet 6% and RE007 growth inh 2%.
CCSc1nnc(NC(=O)CSc2ncccn2)s1 was read as SARS PLpro yeast 2%, NS1 inh -10%, Cruzain inh Det -2.2%, StopGo reporter 30%[activator], Lassa entry inh 12%, Marburg entry inh 2%, Cruzain inh noDet -14% and RE007 growth inh -10%.
For CC(C)C[C@@H](NC(=O)C1CCC(CNC(=O)[C@H](Cc2ccccc2)NC(=O)OC(C)(C)C)CC1)C(=O)O (some centres undefined) the results were SARS PLpro yeast 2%, NS1 inh 5%, StopGo reporter -2%, Lassa entry inh 5%[46.1 µM], Marburg entry inh 2%[46.1 µM] and RE007 growth inh -20%.
For Cc1cc(C)c(S(=O)(=O)N2CCOC2CNC(=O)C(=O)NCCCN2CCCC2=O)c(C)c1 (centres undefined) the results were SARS PLpro yeast -1%, NS1 inh -2%, StopGo reporter 1%, Lassa entry inh -1%, Marburg entry inh 29% and RE007 growth inh -9%.

Bioassay records deposited in PubChem by National Center for Advancing Translational Sciences (NCATS).
